VDR inhibitor = inhibitors of human vitamin D receptor; VDR-SRC2-3 peptide fluorescence polarization, 2 h; Potency, µM, for inactives: max response, negative = inhibition, usual class: inhibitors; actives 0.93% (n = 400,000); AID 504847; active = well fitted inhibition curve with a large enough effect; inconclusive = small, poorly fitted or top-dose-only effect, or another doubt; inactive = no such curve, though single readings can be large or run the other way; also: series mostly up to about 120 µM
Target sequence (P11473 whole entry, looked up): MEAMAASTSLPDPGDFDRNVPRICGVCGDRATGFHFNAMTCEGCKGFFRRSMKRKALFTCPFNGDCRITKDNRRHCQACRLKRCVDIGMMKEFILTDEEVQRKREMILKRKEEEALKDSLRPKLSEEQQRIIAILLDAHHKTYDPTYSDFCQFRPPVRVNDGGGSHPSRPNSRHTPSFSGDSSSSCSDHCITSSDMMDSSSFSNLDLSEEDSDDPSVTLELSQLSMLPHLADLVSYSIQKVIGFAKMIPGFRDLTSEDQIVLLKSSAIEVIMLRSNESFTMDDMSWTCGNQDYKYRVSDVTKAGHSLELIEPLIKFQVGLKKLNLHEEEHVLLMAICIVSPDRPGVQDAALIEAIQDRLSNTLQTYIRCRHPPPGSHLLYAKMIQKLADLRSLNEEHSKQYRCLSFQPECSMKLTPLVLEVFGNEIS
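Fluorescence polarization assay of small-molecule disruption of VDR binding to coregulator peptide SRC2-3. Compounds and controls pin-transferred, then read after 2 h incubation at ambient room temperature.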
Starred values were filed as active, the others as inactive; ? = inconclusive; & = joins results of further samples. % is scaled to controls: 0 for no effect and ±100 for the full control effect; potency is read from the fitted curve at half-maximal effect. Some of the compounds tested; count on the stated rates, not on these rows.

VDR inhibitor	Molecule
-4%	O=C(/C=C/Nc1ccc(Oc2ccccc2)cc1)c1ccco1
-6%	CCCN(CCC(=O)Nc1cc(OC)cc(OC)c1)CC1CC1
3%&9%	CCC(Sc1ccc2nnc(CCNS(=O)(=O)c3ccc(OC)cc3)n2n1)C(=O)OC (stereo not drawn)
6%	CCOC(=O)c1c(-c2cccs2)csc1NC(=O)c1ccncc1
-7%	COc1ccc(CC(=O)Nc2c(C(=O)N3CCN(c4ncccn4)CC3)oc3ccccc23)cc1OC
-7%	CCN(C(=O)COC(=O)/C=C/c1c(C)nn(-c2ccccc2)c1C)c1c(N)n(Cc2ccccc2)c(=O)[nH]c1=O
19%	CCCN(CCO)C1CCN(CCc2ccccc2)CC1
-11%	CCN1CC(C)(C)N(C(=O)c2ccccc2)CC1(C)C
9%	CC1(O)CC(c2ccc(Cl)cc2)=NN1C(=O)c1ccc([N+](=O)[O-])cc1 (stereo not drawn)
0%	Clc1ccc(/C=C\c2nccc3c2[nH]c2ccccc23)cc1
-9%	COC(=O)C1CCN(C(=O)CN2C(=O)NC3(CCC(C)CC3)C2=O)CC1 (stereo not drawn)
13%&0%	Cc1ccc(NS(=O)(=O)c2c(C)[nH]c(=O)[nH]c2=O)c(C)c1
-21%	COc1ccccc1Nc1nc(-c2sc(NC(=O)c3ccco3)nc2C)cs1
-17%	CCc1nccn1CCC(=O)N1CCCC(Nc2ccc(C(C)C)cc2)C1 (stereo not drawn)
-12%	c1ccc2c(OCCCCN3CCOCC3)cccc2c1
-3%	CC(C)(CNC(=O)CC1C(=O)NCCN1Cc1cccc(F)c1F)N1CCOCC1 (stereo not drawn)
45µM*	COc1ccc(OC)c(/C=C/C(=O)c2ccc(Cl)cc2)c1
16%	CN(C(=O)COc1ccc2c(-c3ccccc3)cc(=O)oc2c1)C1CCS(=O)(=O)C1 (stereo not drawn)
-1%	COc1cc2oc(=O)ccc2c(OC)c1CC(O)C(C)(C)O (stereo not drawn)
?	CCOc1cccc(C(=O)NC(c2ccccc2)C(C)C)c1 (stereo not drawn)
-26%	COc1ccc(C(=O)N/C(=C\c2ccccc2)C(=O)Nc2ccc(C(=O)NCC(=O)O)cc2)cc1
-20%	CC(=O)N1CCc2cc(S(=O)(=O)CCC(=O)N3CCN(c4cccc(C)c4C)CC3)ccc21
-3%	CCCNC(=O)c1c(NC(=O)C2COc3ccccc3O2)sc2c1CCCC2 (stereo not drawn)
0%	NCCCCNS(=O)(=O)c1ccc2c(Cl)cccc2c1
-6%	COc1ccc(CNCc2ccc(C)cc2)c(OC)c1
-17%	c1ccc(CSc2nnc(-c3ccccn3)n2-c2ccccc2)cc1
1%	Cc1ccc(C)c(NC(=O)Cc2coc3cc(C)cc(C)c23)c1
9%	Cc1ccccc1Nc1nnc(SCC(=O)Nc2ncc(C(F)(F)F)cc2Cl)s1
-19%	CC(Oc1ccc(Cl)cc1)C(=O)Nc1nccs1 (stereo not drawn)
-1%	CC1Cc2ccccc2N1S(=O)(=O)c1cccc(C(=O)OCC(=O)N2CCOCC2)c1 (stereo not drawn)
6%	COc1ccc(CNC(=O)CNC(=O)c2sc3ccccc3c2Cl)cc1OC
8%	CCN1CCN(C(CNS(=O)(=O)c2ccc(OC)c(C)c2)c2cccnc2)CC1 (stereo not drawn)
-14%	CN(C)S(=O)(=O)c1ccc(N2CCCC2)c(C(=O)NCC(=O)Nc2ccc(F)c(F)c2)c1
-16%	O=C(Cn1c(=O)sc2ccccc21)Nc1ccccc1C(=O)O
-14%	CCS(=O)(=O)c1nc(S(=O)(=O)c2ccc(C)cc2)c(N2CC(C)CC(C)C2)s1 (stereo not drawn)
-11%	Cc1ccc(S(=O)(=O)NN2Cc3ccccc3C2=N)cc1
-15%	O=C(CN1CCCC1c1cccs1)Nc1cc(S(=O)(=O)N2CCCCC2)ccc1Cl (stereo not drawn)
-3%	O=C(Cc1ccc(S(=O)(=O)N2CCOCC2)s1)Nc1cc(C(F)(F)F)cc(C(F)(F)F)c1
-13%	CC(C)OCCCNC(=O)CN1C(=O)COc2ccc(S(=O)(=O)N3CCOCC3)cc21
4%	Cc1sc(NC(=O)CN(Cc2ccc(F)cc2)C(=O)C(C)(C)C)c(C(N)=O)c1C
3%	COC(=O)c1ccc(N=NN2CCCCCC2)cc1
11%	CN(C)S(=O)(=O)Oc1cccc(C(=O)Nc2cccc(Cl)c2)c1
-1%	CC(=O)NC(c1ccc(C)cc1)c1cc([N+](=O)[O-])c2cccnc2c1O (stereo not drawn)
22%	CC(=O)Nc1ccc(NC(=O)C(C)Sc2n[nH]c(-c3cccs3)n2)cc1 (stereo not drawn)
-20%	CCCCc1cc(-c2n[nH]c(=S)o2)c2ccccc2n1
-11%	CN(C)c1ccc(C(=O)OCC(=O)NCCC2=CCCCC2)cc1
8%	CN(C)C(CNC(=O)CCC(=O)c1ccc(Br)cc1)c1ccccc1 (stereo not drawn)
-6%	Cc1ccnc(Sc2nc3c(c(=O)[nH]c(=O)n3C)n2CCCc2ccccc2)n1
-6%	Cc1ccc(-n2ncc(C(=O)N3CCN(c4ncccn4)CC3)c2C2CCN(C(=O)OC(C)(C)C)CC2)cc1
-18%	COc1ccc(-n2ccnc2)cc1
-9%	CC(O)(c1ccc(Cl)cc1)c1ccc(Cl)cc1
-11%	CN(C)C(CNC(=O)c1ccc(NS(=O)(=O)c2ccc3[nH]c(=O)[nH]c3c2)cc1)c1ccccc1 (stereo not drawn)
10%	CN(C(=O)c1ccco1)c1nc(-c2ccccc2)cs1
5%	CC(C)(C)Nc1oc(-c2ccccc2)nc1-c1ccccc1F
4%	O=C(/C=C/c1ccc(Cl)cc1)Nc1ccc(CN2CCOCC2)cc1
1%	CC(NC(=O)Nc1ccccc1C(F)(F)F)c1c(-n2cccc2)sc2c1CCCC2 (stereo not drawn)
3%	Cc1cccn2c1nc(=S)n2C(=O)c1ccco1
-19%	COc1ccc(S(=O)(=O)Nc2ccc(N3CCOCC3)cc2)cc1[N+](=O)[O-]
0%	CN(CC(=O)Nc1ccccc1Br)C(=O)CN1CCN(Cc2ccc(Cl)cc2)CC1
-20%	CC(C)(C)c1ccc(S(=O)(=O)N2C=CC(C(F)(F)F)=NCC2)cc1

Rewritten as comma-separated lines: 15 of the compounds above
SMILES,VDR inhibitor
O=C(/C=C/Nc1ccc(Oc2ccccc2)cc1)c1ccco1,-4%
CCCN(CCC(=O)Nc1cc(OC)cc(OC)c1)CC1CC1,-6%
CCC(Sc1ccc2nnc(CCNS(=O)(=O)c3ccc(OC)cc3)n2n1)C(=O)OC (stereo not drawn),3%&9%
CCOC(=O)c1c(-c2cccs2)csc1NC(=O)c1ccncc1,6%
COc1ccc(CC(=O)Nc2c(C(=O)N3CCN(c4ncccn4)CC3)oc3ccccc23)cc1OC,-7%
CCN(C(=O)COC(=O)/C=C/c1c(C)nn(-c2ccccc2)c1C)c1c(N)n(Cc2ccccc2)c(=O)[nH]c1=O,-7%
CCCN(CCO)C1CCN(CCc2ccccc2)CC1,19%
CCN1CC(C)(C)N(C(=O)c2ccccc2)CC1(C)C,-11%
CC1(O)CC(c2ccc(Cl)cc2)=NN1C(=O)c1ccc([N+](=O)[O-])cc1 (stereo not drawn),9%
Clc1ccc(/C=C\c2nccc3c2[nH]c2ccccc23)cc1,0%
COC(=O)C1CCN(C(=O)CN2C(=O)NC3(CCC(C)CC3)C2=O)CC1 (stereo not drawn),-9%
Cc1ccc(NS(=O)(=O)c2c(C)[nH]c(=O)[nH]c2=O)c(C)c1,13%&0%
COc1ccccc1Nc1nc(-c2sc(NC(=O)c3ccco3)nc2C)cs1,-21%
CCc1nccn1CCC(=O)N1CCCC(Nc2ccc(C(C)C)cc2)C1 (stereo not drawn),-17%
c1ccc2c(OCCCCN3CCOCC3)cccc2c1,-12%

Following part.
VDR inhibitor	Molecule
14%	COc1cc(C=O)ccc1OC(=O)c1ccc(C(C)C)cc1
2%	Cc1cc(C)cc(OCC(=O)Nc2cc(NC(=O)COc3cc(C)cc(C)c3)cc(C(=O)O)c2)c1
-6%	S=c1[nH]nc(C2CCCCC2)o1
-4%	CCOC(=O)c1[nH]c(Cc2[nH]c(C(=O)OCC)c(C)c2CCC(=O)OC)c(CCC(=O)OC)c1C
-11%&-12%	COc1cc(OC)c2ccc(=O)oc2c1C(CCN1CCN(c2ccccc2)CC1)c1ccc(N(C)C)cc1 (stereo not drawn)
-16%	CCCn1c(=O)c(C(=O)NNC(=O)c2ccccc2Cl)c(O)c2ccccc21
10%	O=C(Nc1cccc(-c2cccc(Cl)c2)c1)C1CCN(Cc2ccccn2)CC1
3%	O=C1CC(c2ccccc2)Cc2[nH]c(=O)c(C(=O)Nc3ccc(F)cc3)cc21 (stereo not drawn)
-12%	CCCOc1ccc(C(C)=O)cc1Cc1c(O)nc(SC)[nH]c1=O
6%	O=C(CCn1c(=O)c2sccc2n(CC(=O)NCc2ccco2)c1=O)NCc1ccccc1
-25%	CSc1ccccc1NC(=O)CNCCCN1CCOCC1
12%	CN(c1ccccc1)S(=O)(=O)c1cccc(NC(=O)c2cccc(C#N)c2)c1
-19%	O=S(=O)(c1ccccc1)N1CCN=C1SCc1ccccc1
17%	Cc1ccc2nc(-c3ccc(NC(=O)C4CCCO4)cc3)[nH]c2c1 (stereo not drawn)
5%	COc1cccc(-c2nc(CS(=O)CC(=O)NC3CCCCC3)c(C)o2)c1 (stereo not drawn)
-4%	COC(=O)c1ccc(SCC(=O)NCc2ccccc2)c([N+](=O)[O-])c1
-18%	Cc1ccc(-n2ccnc(SCC(=O)NC3CCCC3)c2=O)cc1Cl
5%	CC12COC3(C(=O)Nc4ccc(Cl)cn4)CC1CCC32C (stereo not drawn)
-22%	Cc1cc(C)cc(N(CC(=O)N2CCN(c3ccccc3)CC2)S(=O)(=O)c2c(C)noc2C)c1
?	CSc1nc(C)cc(OCCO)n1
-11%	CN1CCN(NC(=O)c2cccc(C(F)(F)F)c2)CC1
17%	COc1cccc(C(=O)NC2CCSC2=O)c1 (stereo not drawn)
-21%	O=C(Nc1nc2c(s1)CCCC2)c1nn(Cc2ccccc2)c(=O)c2ccccc12
-4%	O=C(CNC(=O)c1ccc2c(c1)OCCO2)N/N=C/c1ccco1
-20%	C=CCn1c(N)cc(=O)nc1SCC(=O)N(c1ccccc1)c1ccccc1
-6%	COc1ccc(OC)c(NC2c3ncccc3C(=O)N2Cc2ccco2)c1 (stereo not drawn)
-1%	CCOc1ccc(C(=O)NCCc2sc(-c3cccc(F)c3)nc2C)cc1OCC
-4%	CCS(=O)(=O)NCc1cn2c(C)csc2n1
-4%	CCc1ccccc1N(C(=O)c1snc(C(N)=O)c1N)C(C(=O)NCC1CCCO1)c1ccc(C)o1 (stereo not drawn)
-24%	CCn1c(SCC(=O)NCC(=O)Nc2ccc(F)cc2)nnc1-c1cccs1
4%	Nc1c(N(CCC2=CCCCC2)C(=O)c2ccccc2F)c(=O)[nH]c(=O)n1Cc1ccccc1
-19%	Cc1ccc(NC(=O)COC(=O)/C(=C/c2cccs2)c2cccs2)cc1S(=O)(=O)N(C)C
11%	CC(CCc1ccccc1)NC(=O)Cn1ncc2c3ccccc3n(Cc3ccccc3F)c2c1=O (stereo not drawn)
13%	CC(C)c1onc(C(=O)NC2CCCCC2)c1[N+](=O)[O-]
50µM*	O=C(O)COc1cccc2c1CCC=C2CCO/N=C(\c1ccccc1)c1cccnc1
12%	COC(=O)COC(=O)c1ccc(-n2nnnc2SC)cc1
-4%	Cc1ccc(CNC(=O)C2CCN(C(=O)c3cccc(Cl)c3)CC2)cc1
5%	CC(C)NC(=O)N(C)C[C@H]1Oc2c(NS(=O)(=O)c3cccs3)cccc2C(=O)N([C@H](C)CO)C[C@@H]1C
-11%	COC(=O)C1=CNC=C(C(=O)OC)C1c1cccc2ccccc12
0%	O=C(NN1C(=O)C2C3C=CC(C4CC34)C2C1=O)c1cccc(Br)c1 (stereo not drawn)
-14%	Cc1ccccc1/C=C(\C#N)c1nc(-c2ccc(Cl)cc2)cs1
3%	O=C(COC(=O)c1cccc(S(=O)(=O)N2CCCCCC2)c1)Nc1ccccc1
23%	CC(=O)c1ccc(N2CCN(C(=O)c3ccc(Cn4c(=O)[nH]c5ccccc5c4=O)cc3)CC2)cc1
10%	COc1ccccc1NC(=O)CN1CCN(CC(=O)Nc2ccc(F)cc2F)CC1
-20%	COc1ccccc1NC(=S)NNC(=O)c1ccncc1
9%	Oc1ccc2ccccc2c1CNn1cnnc1
-4%	Cc1c(C(=O)OCC(=O)NC2CCCCC2)oc2ccccc12
4%	O=c1[nH]nc(-c2ccc(F)cc2)cc1-c1ccccc1
-8%	O=C(CSc1ncnc2ccccc12)c1cccs1
-7%	CCn1c(=O)c2sccc2n2c(CCC(=O)Nc3ccc(OC)c(Cl)c3)nnc12
-6%	COc1ccccc1NC(=O)C1(c2ccccc2)CCCC1
4%	COc1cccc(-c2cc(C(=O)NC3CCCCC3)no2)c1
-12%	CCc1noc(C)c1C(=O)Nc1nc2c(C)cc(C)cc2s1
6%	O=[N+]([O-])c1ccc(Nc2ccccc2O)c2nonc12
-17%	CCOC(=O)N1CCC(n2c(SCC(=O)NCCC3=CCCCC3)nc3ccccc3c2=O)CC1
-1%	CCn1ncc(C2=NOC(C(=O)Nc3ccc(C)cc3)C2)c1C (stereo not drawn)
-4%	O=C(N/N=C/c1cc2c(cc1Br)OCO2)c1cccnc1
-1%	Cc1cccc(-n2c(O)c(C=NC3CCS(=O)(=O)C3)c3ccccc3c2=O)c1 (stereo not drawn)
-15%	Cc1ccc(Cc2c[nH]c(=S)s2)cc1

Screening data as filed in PubChem.
